# Screening results deposited in PubChem BioAssay by National Center for Advancing Translational Sciences (NCATS).
# PMP22 txn: Cell-based coincidence reporter assay to measure PMP22 gene transcription in S16 Pmp22-F2sN cells - Primary screen | AID 1508649, 2021 | Potency, µM (titrated, usually from 57.5 µM), for inactives: at the highest dose activity change, negative = inhibition, hits mostly inhibitors | S16 Pmp22-F2sN Schwann cells (luciferase reporters placed in the Pmp22 gene), FLuc/NLuc coincidence luminescence, 24 h | actives 2% (n = 43,000); active = clear falling dose curves in both reporters; inconclusive = both reporters move, but less clearly or upward; inactive = either reporter flat; the % is the NLuc reporter signal; further: on the % scale 0 is the no-effect control and ±100 the full control effect; some results filed as inactive show a strong effect at the top dose
#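 qHTS, 1536-well. Cells seeded, compounds added by pin tool, 24 h 37C. Nano-Glo reagent 1 (lysis/FLuc), 10 min RT, read; Stop&Glo, 10 min RT, read NLuc.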
# HTT prom inh: Primary qHTS for Identification of Small Molecule Inhibitors of Huntingtin Promoter Activity | AID 1508623, 2021 | actives 0.93% (n = 48,000) | HEK293 HTT promoter firefly luciferase reporter (activity 0% = vehicle and -100% = no light), 24 h | Potency, µM (top dose mostly 57.5 µM), for the others: at the highest dose activity change, negative = inhibition, actives largely listed as inhibitors; active means well fitted inhibition curve with a large enough effect; inconclusive means small, poorly fitted or top-dose-only effect; inactive means no such curve, though single readings can be large or run the other way; further: nearly all actives have a fitted effect of over 50% in size
#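 HEK293 luciferase promoter-reporter cells (2,500/well) plated 24 h, then compounds added at up to 57.5 uM final for 24 h at 37 °C. Firefly luminescence by Dual-Glo, normalized to vehicle (0%) and zero RLU (-100%).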
# * marks the source's active call; other numbers are inactive results; ? = inconclusive; · = not tested or not shown; & = joins results of further samples; [ ] = another dose, or the depositor's remark. Potency means the concentration at half of the fitted maximal effect.
SMILES,PMP22 txn,HTT prom inh
CCN(CC)C(=O)c1cccc(C)c1,·,-2%
O=C(/C=C/c1ccc(O)c(O)c1)O[C@@H]1C[C@@](OC(=O)/C=C/c2ccc(O)c(O)c2)(C(=O)O)C[C@@H](O)[C@@H]1O,·,12%
CC(Sc1oc(-c2cccs2)nc1S(=O)(=O)c1ccccc1)c1ccccc1 (stereo unspecified),-8%,-22%
COc1ccc(S(=O)(=O)NC2(C(F)(F)F)NC(=O)N(CCc3ccccc3)C2=O)cc1 (stereo unspecified),-29%,3%
CCC(Sc1nc2ccccc2c2nc(CCn3c(C)nc4ccccc43)nn12)C(=O)Nc1ccc(F)cc1 (stereo unspecified),7%,-21%
COC(=O)c1ccccc1NC(=O)Cn1cc(S(=O)(=O)Cc2ccccc2F)c2ccccc21,-30%,?
COc1ccc(OC)c(C2C(C(N)=O)=C(C)Nc3nc(-c4cccc(Cl)c4)nn32)c1 (stereo unspecified),?,-11%
Cc1ccccc1Cn1c2ccccc2c2cnn(CC(=O)NCc3ccccn3)c(=O)c21,-14%,-2%
CCOC(=O)c1ccccc1NC(=O)CSc1nc2ncccc2[nH]1,-109%,-19%
O=C(COc1ccc([N+](=O)[O-])cc1)Nc1cccc2cccnc12,-21%,8%
NC(=O)c1cnc(-c2ccc(C3(N)CCC3)cc2)c(-c2ccccc2)c1,·,-13%
COc1cc(C(=O)N2CCN(c3ccc(Nc4ccccc4)nn3)CC2)cc(OC)c1OC,?,-7%
CCC1CN(C(=O)NCc2cccc(OC)c2)c2ccccc2O1 (stereo unspecified),2%,-4%
O=C(NCc1ccccc1Br)c1cnc2sc(N3CCCCCC3)nn2c1=O,-23%,11%
O=c1[nH]c2ccc(NCc3ccc(-c4ccccc4F)o3)cc2[nH]1,-97%,28µM*
COc1ccc(-c2[nH]c(-c3ccc(O)cc3)nc2-c2ccccc2)cc1,?,-21%
O=C(c1ccc2c(c1)OCCO2)N(Cc1cccnc1)c1nc2ccc(F)cc2s1,?,?
Cc1cccc(C)c1OC(=O)CSc1nnc(CNC(=O)c2ccccc2)o1,-6%,-20%
CCCOc1ccc(C2C(=O)N(C3CCCCC3)CC(=O)N2C2CCCCC2)cc1OC (stereo unspecified),?,7%
CCOC(=O)c1c(-c2ccc(OC)c(OC)c2)csc1NC(=O)c1ccc(F)cc1,-2%,3%
CCOC(=O)c1cc(-c2ccccc2)n(CCCC(=O)Nc2ccc(C)c(Cl)c2)c1C,?,?
CCOc1ccc2c(c1)NC(c1ccc(OCC)c(OCC)c1)=NC(c1ccc(F)cc1)=N2,-14%,41%[activator]
COc1ccc(N2CC(NC(=O)CCc3ccccc3)CC2=O)cc1OC (stereo unspecified),19%,4%
CCN(C(=O)CCS(=O)(=O)c1ccc2c(c1)oc(=O)n2C)c1ccc(OC)cc1,-14%,21%[11.5 µM]
Cc1ccc(CNC(=O)CC(C)CC2=NS(=O)(=O)c3ccccc3N2)cc1 (stereo unspecified),-10%,?
# (further entries)
SMILES,PMP22 txn,HTT prom inh
CCCC(=O)N1CCc2cc(OC)c(OC)cc2C1COc1ccccc1OC (stereo unspecified),-23%,-21%
Cc1ccc(-n2ncc(C(=O)N3CCCCC3)c2C2CCN(C(=O)OC(C)(C)C)CC2)cc1C,-2%,2%
Cc1ccc(CNC(=O)CCC(=O)N2CC3CCCN3c3ccccc32)cc1 (stereo unspecified),1%,0%
O=C(CSc1nc(-c2ccccc2)nc2cc(=O)[nH]n12)Nc1ccccc1,?,-7%
Cc1ccc(NC(=O)Cc2ccc(-n3c(C)nc4cccnc43)cc2)c(Cl)c1,?,8.9µM*
Cc1cccc(NC(=O)Cn2c(=O)n(Cc3ccccc3)c(=O)c3sc4ccccc4c32)c1,?,-25%
COc1ccc(C)cc1NC(=O)C1CCN(S(=O)(=O)c2c(C)noc2/C=C/c2ccco2)CC1,?,-8%
COCCCNC(=O)c1ccc2c(c1)NC(=O)C(C(C)C)N2 (stereo unspecified),1%,-13%
CCOC(=O)c1c(NC(=O)c2ccc(S(=O)(=O)N3CCCC(C)C3)cc2)sc2c1CCN(C(C)C)C2 (stereo unspecified),?,?
O=C(NC1(C(F)(F)F)NC(=O)N(CCc2ccccc2)C1=O)c1ccccc1Cl (stereo unspecified),-2%,-7%
COc1cccc(CCNC(=O)c2cnc3sc(N4CCCC4)nn3c2=O)c1,-3%,?
COc1ccc(OC)c(NC(=O)C(NS(=O)(=O)c2ccc3c(c2)CCCC(=O)N3)C(C)C)c1 (stereo unspecified),-21%,-11%
Cc1cc2c(c3oc(=O)c4ccccc4c13)CN(Cc1ccc(F)cc1)CO2,?,-3%
Cc1ccc(Cl)c2sc(NC(=O)CS(=O)(=O)c3ccc(Cl)cc3)nc12,-5%,-10%
CCOC(=O)c1ccccc1NC(=O)C1CCN(c2ncnc3c2nc2n3CCCCC2)CC1,?,-12%
CC(NC(=O)c1c(O)nc2ccccn2c1=O)c1ccccc1 (stereo unspecified),18%,-14%
COc1cccc(N(C)C(=S)Oc2ccc3c(c2)CCCC3)n1,·,-2%&-14%
Cc1nn2c(C)c(C(=O)NCc3ccco3)cnc2c1-c1ccccc1,3%,-19%
CC(NC(=O)c1ccc2nc(Cc3ccccc3)oc2c1)c1ccccc1 (stereo unspecified),?,-19%
COc1ccccc1NC(=O)c1oc2ccccc2c1NC(=O)c1c(F)cccc1F,-24%,7%
CN(C)c1ccc(C(CNC(=O)COc2ccc(Cl)cc2)N2CCOCC2)cc1 (stereo unspecified),-19%,-6%
COc1cc(NC(=O)Cn2ncc3c([nH]c4ccc(C)cc43)c2=O)cc(OC)c1OC,-1%,-3%
Cc1cc(C)c(NC(=O)Cn2nnc(C(=O)Nc3ccc(F)cc3F)c2N)c(C)c1,?,-1%
COc1ccccc1NC(=O)Cn1nc2c3cc(F)ccc3n(Cc3cccc(C)c3)cc-2c1=O,?,10%
CCOC(=O)C1CCN(C(=O)Cn2c(=O)oc3cc(S(=O)(=O)N4CCC(C)CC4)ccc32)CC1,-8%,-15%

# In the list so far, these have a furan ring, fused or not.
SMILES,PMP22 txn,HTT prom inh
O=c1[nH]c2ccc(NCc3ccc(-c4ccccc4F)o3)cc2[nH]1,-97%,28µM*
COc1ccc(C)cc1NC(=O)C1CCN(S(=O)(=O)c2c(C)noc2/C=C/c2ccco2)CC1,?,-8%
Cc1nn2c(C)c(C(=O)NCc3ccco3)cnc2c1-c1ccccc1,3%,-19%
COc1ccccc1NC(=O)c1oc2ccccc2c1NC(=O)c1c(F)cccc1F,-24%,7%

# Continued.
SMILES,PMP22 txn,HTT prom inh
CCOC(=O)c1c(C)c(-c2ccccc2)n(CC(=O)Nc2cc(OC)cc(OC)c2)c1C,?,?
COCCCn1c(=O)c2sccc2n2c(CCCC(=O)Nc3cc(C)cc(C)c3)nnc12,8%,-15%
Cc1ccc2c(CC(=O)Nc3nnc(C(C)C)s3)coc2c1C,?,-1%
Cc1ccc(Cn2c(=O)n(Cc3ccc(C(=O)NC4CCN(Cc5ccccc5)CC4)cc3)c(=O)c3ccccc32)cc1,1%,-11%
CCCCCc1ccc(-c2ccc(C(=O)Oc3ccc(C(=O)OC)cc3)cc2)nc1,3%,-29%
CCC(C)n1c(=N)c(C(=O)NC2CCCCC2)cc2c(=O)n3ccccc3nc21 (stereo unspecified),?,1%
Cc1cccc2c1-c1sc(C(=O)N(C)c3cccc(C(F)(F)F)c3)cc1CO2,-29%,?
COc1ccc(-c2cc(C(=O)OCC(=O)c3ccc(C)cc3)c3cccc(Cl)c3n2)cc1,-8%,1%
COc1ccc(CCNC(=O)CCn2c(=O)c3ccccc3n(Cc3c(C)cc(C)cc3C)c2=O)cc1OC,1%,-10%
CC1=C(c2ccc(C)c(C)c2)S(=O)(=O)N=C1N1CCC(C(=O)NCc2ccc(C)o2)CC1,-19%,-24%
COc1ccc2[nH]cc(CCNC(=O)Nc3c(C)cccc3C)c2c1,-48%,18%
CCn1c(=O)c2sccc2n2c(CCCC(=O)Nc3ccc(OC)c(OC)c3)nnc12,2%,-15%
O=C(CCn1c(=O)c2cccn2c2cccnc21)N1CCN(c2ccccc2)CC1,-6%,-1%
COc1cc(NC(=O)NCCn2nnc3cc(S(=O)(=O)N(C)C)ccc32)cc(OC)c1,?,-6%
CCOc1cccc(C(=O)Nc2c(C(=O)c3ccc(OC)cc3)oc3ccccc23)c1,-12%,3%
CCC(C(=O)O)C1CCC(C)C(C(C)C(O)C(C)C(=O)C(CC)C2OC3(C=CC(O)[C@@]4(CC[C@](C)(C5CC[C@@](O)(CC)C(C)O5)O4)O3)C(C)CC2C)O1 (stereo partly specified),·,?
Cc1ccc(C(=O)c2cn(Cc3ccc(F)cc3)c3nc(C)ccc3c2=O)cc1,-29%,-27%
Cc1c(CNC2CCC(C)CC2)c(C(=O)O)c(C)n1Cc1ccc(Cl)cc1 (stereo unspecified),-15%,-18%
CCCCNC(=O)C(Cc1ccccc1)NS(=O)(=O)c1ccc2c(c1)c(=O)n(C)c(=O)n2C (stereo unspecified),5%,-9%
CCCc1cnc2c(c1SCc1ccc(C(F)(F)F)cc1)c(=O)n(C)c(=O)n2C,-35%,-15%
COCCCNC(=O)c1oc2c(c1C)-c1nn(Cc3ccc(Cl)cc3)cc1CC2,?,?
COC(=O)C1=C(c2ccccc2)c2ccccc2S(=O)(=O)N1CC(=O)Nc1ccccc1Cl,10%,-18%
Cc1ccc(-c2nc(CCNC(=O)C(=O)Nc3ccc(C)cc3C)cs2)cc1,?,7%
COc1ccc(CCNC(=O)c2ccc3c(c2)nc2n3CCCCC2)cc1OC,-122%,-27%
CC(=O)N1CCc2cc(S(=O)(=O)CCC(=O)Nc3ccc(C)cc3Br)ccc21,?,-21%
# Continuation:
SMILES,PMP22 txn,HTT prom inh
COc1ccccc1CNC(=O)CCCn1c(=O)c2cccn2c2ccccc21,?,-9%
COc1ccc(CNC(=O)c2cc(-c3ccc(OC)c(OC)c3)nc3n[nH]c(-c4ccc(C)cc4)c23)cc1,?,?
CCOc1cc(C#N)c(NC(=O)c2ccc(OC)c(S(=O)(=O)N3CCN(c4ccccc4)CC3)c2)cc1OCC,-1%,12%
CCCCn1cc2c(c1-c1ccc(Cl)cc1)c(=O)n(C)c(=O)n2C,?,?
COCCNc1nc2c(S(=O)(=O)c3ccccc3)nnn2c2ccc(Cl)cc12,5%,-6%
CC(=O)N1CCc2cc(S(=O)(=O)N3CCN(c4ccc(C)cc4)C(C)C3)ccc21 (stereo unspecified),?,?
CCCCNc1ccc(-c2nc(-c3ccccn3)no2)cc1[N+](=O)[O-],6%,27%
CCc1ccc(S(=O)(=O)c2nnn3c2nc(NCc2cccc(OC)c2)c2cc(Cl)ccc23)cc1,-17%,-12%
COc1ccc(C2c3[nH]c4ccc(OC)cc4c3CCN2C(=O)Nc2ccccc2)cc1 (stereo unspecified),?,?
Cc1ccc(Cc2nc3ccccc3nc2SCC(=O)NCCC(C)C)cc1,-22%,0%
CCC(C)N(C)C(=O)c1cc2ccccc2c(-c2ccccc2Cl)n1 (stereo unspecified),·,-21%
COc1ccc(CCNc2oc(/C=C/c3cc(OC)c(OC)c(OC)c3)nc2C#N)cc1OC,-94%,-6%
COCCc1ccc(OCC(O)CNC(C)C)cc1 (stereo unspecified),·,12%
COc1ccc(OC)c(NC(=O)C2=C(C)C(=O)OC23CCCCCC3)c1,-28%,-7%
CCn1c(C(=O)N2CCC(C(=O)NCCCOC)CC2)cc2sccc21,-9%,9%
Cc1ccc(-c2nc3nc(C)cc(N4CCN(c5cccc(C)c5C)CC4)n3n2)cc1,-5%,3%
Cc1nnc(N2CCC(C(=O)N3CCCCC3)CC2)c2nn(-c3ccccc3)c(C)c12,5%,-14%
CCCCC(=O)Nc1ccc(C(=O)OCc2cc(=O)n3ccsc3n2)cc1,2%,-8%
CCC(=O)N1CCc2cc(Br)cc(S(=O)(=O)N3CCCC(C(=O)NCc4cccc(OC)c4)C3)c21 (stereo unspecified),14µM*,-8%
COc1ccccc1N1CCN(C(=O)Cn2ncc3c(=O)oc4ccc(C)cc4c32)CC1,-40%,8%
O=C(NCCCN1CCN(c2ccccc2)CC1)c1ccc2nc(CCc3ccccc3)oc2c1,19µM*,?
CC(=O)c1ccc(S(=O)(=O)N2CCn3cccc3C2c2ccc(F)c(F)c2)cc1 (stereo unspecified),-5%,-22%
Cc1ccc(N2C(=O)CSC23C(=O)N(CC(=O)Nc2ccc(C(C)C)cc2)c2ccccc23)cc1C (stereo unspecified),?,-28%
CCc1ccccc1NC(=O)CSc1nnc(CC)c(CC)n1,15%,-20%
CCCCn1c(=NC(=O)c2c(-c3c(F)cccc3Cl)noc2C)c(C(=O)OCC)cc2c(=O)n3ccccc3nc21,-3%,-9%
Cc1ccc(CN(C(=O)c2ccccc2[N+](=O)[O-])c2ccccn2)cc1,-4%,-24%
